KCNQ2 block: KCNQ2 potassium channel inhibitors, primary screen, cell-based, CHO-K1, FluxOR thallium flux, B-score (AID 2156). O88943. 20 min; hits give low values; only compounds with negative scores are shown here; some inactives read as strong as hits. B-score at 10 µM. 310,000 compounds, 1.1% hits;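 active = fluorescence ratio B-score at most minus 3 library SDs, with starting brightness B-score within 2 library SDs, cut at about -5.5 in these data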
Target sequence (O88943 whole entry, looked up): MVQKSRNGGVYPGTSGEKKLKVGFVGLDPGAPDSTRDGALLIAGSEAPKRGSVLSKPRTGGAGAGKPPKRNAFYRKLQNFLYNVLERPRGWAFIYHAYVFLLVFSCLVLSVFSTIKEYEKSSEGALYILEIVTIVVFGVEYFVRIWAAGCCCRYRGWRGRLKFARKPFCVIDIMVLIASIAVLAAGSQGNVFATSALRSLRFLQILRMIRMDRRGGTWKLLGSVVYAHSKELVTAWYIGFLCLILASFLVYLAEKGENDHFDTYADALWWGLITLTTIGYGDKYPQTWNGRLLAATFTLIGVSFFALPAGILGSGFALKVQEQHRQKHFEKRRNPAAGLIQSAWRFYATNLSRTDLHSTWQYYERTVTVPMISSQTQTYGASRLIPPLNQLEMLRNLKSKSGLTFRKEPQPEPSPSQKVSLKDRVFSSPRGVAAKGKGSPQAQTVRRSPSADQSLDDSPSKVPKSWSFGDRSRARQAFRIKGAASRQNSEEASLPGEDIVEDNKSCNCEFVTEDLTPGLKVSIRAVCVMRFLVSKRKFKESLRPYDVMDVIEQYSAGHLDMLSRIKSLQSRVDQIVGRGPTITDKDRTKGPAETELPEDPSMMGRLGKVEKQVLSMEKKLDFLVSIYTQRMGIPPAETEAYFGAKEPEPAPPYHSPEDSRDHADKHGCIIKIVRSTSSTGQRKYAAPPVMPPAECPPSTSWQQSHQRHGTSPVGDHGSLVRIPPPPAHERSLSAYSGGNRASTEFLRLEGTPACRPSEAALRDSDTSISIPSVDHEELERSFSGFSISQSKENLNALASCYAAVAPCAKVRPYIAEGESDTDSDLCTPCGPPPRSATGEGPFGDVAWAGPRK
KCNQ2 block baseline: recorded beside KCNQ2 block, whose call it bears; B-score; measured here: initial fluorescence intensity artifact check;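 brightness before thallium and not channel activity; 0 = typical well and far values either way flag optical interference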
The depositor's hits bear a star; i = inactive.

KCNQ2 block,KCNQ2 block baseline,SMILES
i,-1.31,CC(NC(=O)c1cc(S(=O)(=O)N(C)C)ccc1N1CCCC1)C1CC2CCC1C2 (stereo not drawn)
i,4.34,O=C(/C=C/c1ccccc1Cl)NCCCn1ccnc1
i,0.4,Cc1ccc(-c2nnc(N3CCCCCC3)c3ccccc23)cc1
i,-0.57,COc1ccc(OC)c(N)c1
i,1.03,CC(C)(C)[C@@H]1C=C(C(=O)NCc2ccccc2)O[C@H](OCc2ccc(CO)cc2)C1
i,-1.39,CCc1ccc(Nc2n[n+](-c3ccccc3)c(-c3ccc(SC)cc3)s2)cc1
i,0.72,CN(C)C(=O)C12CCC(C)(c3nc4ccccc4nc31)C2(C)C (stereo not drawn)
i,-1.03,COc1cccc(CN(CC(=O)NC2CCCC2)C(=O)CCC(=O)Nc2cc(C)on2)c1
i,2.41,O=C1CSC(c2ccncc2)N1Cc1ccco1 (stereo not drawn)
i,-0.08,CC(=O)c1sc(NC(=O)Cc2c(F)cccc2Cl)nc1C
i,-0.38,O=c1cc(-c2ccccc2)c2c([nH]1)CCCC2
i,0.02,CCCNS(=O)(=O)c1ccc(CCC(=O)Nc2cc(Cl)ccc2Oc2ccccc2)cc1
i,1.33,CC(C)Cc1nc2ccc(N)cc2[nH]1
i,-0.74,O=C/C=C/c1c(-c2ccccc2)cc2oc3ccccc3cc1-2
i,-2.21,Cc1cc(-c2cc(N)n(-c3ccccc3)n2)c(C)n1C1CCCC1
i,0.04,Cc1cccc(C)c1NC(=O)CSc1nnnn1C
i,-0.1,COc1ccc(S(=O)(=O)Cc2ccc(C(=O)NC3CCCCCC3)o2)cc1
i,0.81,COC(=O)C[C@H]1c2cc(C(F)(F)F)ccc2S(=O)(=O)N1Cc1ccc(OC)cc1
i,0.29,O=C(Nc1ccnn1C1CCN(CCCC2CCCC2)CC1)c1ccccc1
i,-1.79,COc1ccc(Cc2nnc(SCC(=O)Nc3ccc(C)c(Cl)c3)[nH]c2=O)cc1
i,1.56,Cc1ccc2cc(CCNC(=O)C3CCCCC3)c(=O)[nH]c2c1C
i,-1.66,CCOC(=O)C1CCCN(Cc2ccccc2F)C1 (stereo not drawn)
i,-0.58,CCCc1nn2c(=O)cc(CSCC(=O)Nc3ccccc3)nc2s1
i,-0.08,CN(CC(=O)Nc1ccc(F)cc1)C(=O)COC(=O)CCN1C(=O)C2CC=CCC2C1=O (stereo not drawn)
i,-0.8,CCOc1ccccc1N1CCN(C(=O)c2ccc3[nH]c(C)c(C)c3c2)CC1
i,-0.09,CCOc1ccccc1NC(=O)C1CCN(c2nc(-c3ccc(OC)cc3)no2)CC1
i,0.51,Cc1ccnc2nc(C(=O)Nc3nc(-c4ccccn4)cs3)nn12
i,-1.18,Cc1cccc(C)c1OCc1cc(C(=O)N(C)Cc2cc(C3CC3)n[nH]2)no1
i,0.92,COCc1cc(C)n(CC(=O)Nc2cc(C)cc(C)c2)c(=O)c1C#N
i,-0.54,S=C(NCCc1ccccc1)N1CCN(C23CC4CC(CC(C4)C2)C3)CC1
i,-0.46,Cc1ccc(S(=O)(=O)/N=C(/Nc2c(C)n(C)n(-c3ccccc3)c2=O)c2ccccc2)cc1
i,-0.97,N#Cc1ccc(/C=N/NC(=S)Nc2ccc(S(=O)(=O)N3CCOCC3)cc2)cc1
i,-0.53,CCOC(=O)Cc1cc(-c2ccc(F)cc2)nc2ccc3ccccc3c12
i,79.2,CCCCCn1nc(-c2ccccc2)c2nc3ccccc3nc21
i,0.12,N#CC1(NC(=O)COC(=O)c2cc(=O)[nH]c3ccccc23)CCCCC1
i,0.42,Cc1ccc(OCC(=O)NCCNC(=O)c2ccco2)cc1
i,-2.52,COc1ccc(CCNC(=O)CC2SC(=NCc3ccccc3)NC2=O)cc1 (stereo not drawn)
i,-1.04,Cc1cc(NC(=O)C(C)SCC(=O)O)no1 (stereo not drawn)
i,2.08,O=C(CC1Nc2ccccc2NC1=O)NCCc1ccccc1 (stereo not drawn)
i,0.56,COc1ccc(C2NS(=O)(=O)N=C2N)cc1 (stereo not drawn)
i,-2.35,CC(C)(C)c1ccc(C(=O)C=[N+]=[N-])cc1
i,-0.2,CN=C1SC(CC(=O)NCCc2ccc(OC)c(OC)c2)C(=O)N1C (stereo not drawn)
i,-0.49,COC(=O)C(F)(Sc1c(C)n(C)n(-c2ccccc2)c1=O)C(F)(F)F (stereo not drawn)
i,-0.71,CC(C)(C)CC(C)(C)N=C1NS(=O)(=O)c2cc([N+](=O)[O-])ccc21
i,1.68,Cc1nn(Cc2ccccc2)c(C)c1NC(=O)c1ccc([N+](=O)[O-])cc1[N+](=O)[O-]
i,-0.53,O=C(COc1cccc2c1CCN(Cc1ccccc1F)C2=O)N1CCCCC1
i,-0.06,COc1cc(S(=O)(=O)N2CCOCC2)ccc1NC(=O)COC(=O)CC12CC3CC(CC(C3)C1)C2
i,-0.42,Cc1cc(C(F)(F)F)n(-c2ccc(N)cc2)n1

Filtered by structure, the entries above containing four or more nitrogen atoms
KCNQ2 block,KCNQ2 block baseline,SMILES
i,-1.03,COc1cccc(CN(CC(=O)NC2CCCC2)C(=O)CCC(=O)Nc2cc(C)on2)c1
i,-2.21,Cc1cc(-c2cc(N)n(-c3ccccc3)n2)c(C)n1C1CCCC1
i,0.04,Cc1cccc(C)c1NC(=O)CSc1nnnn1C
i,0.29,O=C(Nc1ccnn1C1CCN(CCCC2CCCC2)CC1)c1ccccc1
i,-1.79,COc1ccc(Cc2nnc(SCC(=O)Nc3ccc(C)c(Cl)c3)[nH]c2=O)cc1
i,-0.58,CCCc1nn2c(=O)cc(CSCC(=O)Nc3ccccc3)nc2s1
i,-0.09,CCOc1ccccc1NC(=O)C1CCN(c2nc(-c3ccc(OC)cc3)no2)CC1
i,0.51,Cc1ccnc2nc(C(=O)Nc3nc(-c4ccccn4)cs3)nn12
i,-1.18,Cc1cccc(C)c1OCc1cc(C(=O)N(C)Cc2cc(C3CC3)n[nH]2)no1
i,-0.46,Cc1ccc(S(=O)(=O)/N=C(/Nc2c(C)n(C)n(-c3ccccc3)c2=O)c2ccccc2)cc1
i,-0.97,N#Cc1ccc(/C=N/NC(=S)Nc2ccc(S(=O)(=O)N3CCOCC3)cc2)cc1
i,79.2,CCCCCn1nc(-c2ccccc2)c2nc3ccccc3nc21
i,1.68,Cc1nn(Cc2ccccc2)c(C)c1NC(=O)c1ccc([N+](=O)[O-])cc1[N+](=O)[O-]

Compound profiles, from the list above:
`CN=C1SC(CC(=O)NCCc2ccc(OC)c(OC)c2)C(=O)N1C` (stereo not drawn) as listed: KCNQ2 block: i; KCNQ2 block baseline: -0.2
`CC(C)(C)CC(C)(C)N=C1NS(=O)(=O)c2cc([N+](=O)[O-])ccc21` as listed: KCNQ2 block: i; KCNQ2 block baseline: -0.71

(next part)
KCNQ2 block,KCNQ2 block baseline,SMILES
i,1.25,Cc1onc(-c2c(Cl)cccc2Cl)c1NC(=O)N1CCSCC1
i,-1.23,COc1ccc(/C(C)=N/Nc2nc3ccccc3nc2C)cc1OC
i,0.04,O=C(Nc1ccc2c(c1)CCC2)C1CCCO1 (stereo not drawn)
i,0.49,Cn1nc(-c2ccccc2)c(CSc2cccc(Cl)c2)c1Cl
i,1.57,Cc1ccc(S(=O)(=O)N2C(=O)CCC2C(=O)N2CCN(C)CC2)cc1 (stereo not drawn)
i,-1.37,O=C(CS(=O)c1ccc(F)cc1)Nc1ccccc1Cl (stereo not drawn)
i,2.65,Cc1ccc(S(=O)(=O)N(C)c2nonc2C)cc1
i,1.62,CC(=O)c1sc(NC(=O)CCS(=O)(=O)c2ccc(C)cc2)nc1C
i,-0.48,CCCN(C(=O)Cn1ncc2c([nH]c3ccccc32)c1=O)c1ccccc1C
i,0.07,CN(C[C@H](c1ccccc1)N(C[C@H](Cc1ccccc1)N(CCc1ccccc1)N=O)N=O)N=O
i,1.04,Cc1cc(C(=O)N/N=C/c2ccc(C)s2)n[nH]1
i,-0.39,COc1ccc(/C(C)=N\Nc2nc(-c3ccc(Cl)cc3)cc(C(F)(F)F)n2)cc1OC
i,0.17,CCOC(=O)C1=C(C)NC(C)=C(C(=O)OC)C1c1cccc([N+](=O)[O-])c1 (stereo not drawn)
i,2.43,CCOc1ccc(N(CC(=O)Nc2ccc(OC)cc2)S(=O)(=O)c2c(C)[nH]c(=O)[nH]c2=O)cc1
i,5.28,COc1ccccc1C1C2=C(COC2=O)Nc2cc3c(cc21)OCO3 (stereo not drawn)
i,4.62,Nc1cccc2c1C(=O)N(c1ccccc1)C2=O
i,8.16,O=C(NCC(O)c1ccc([N+](=O)[O-])cc1)C1CCCCC1 (stereo not drawn)
i,0.96,Cc1c(OC(C)C(=O)NCCCN2CCOCC2)ccc2c3c(c(=O)oc12)CCC3 (stereo not drawn)
i,-0.66,Oc1ccc2c(ccc3[nH]cnc32)c1
i,-1.13,CN(Cc1ccccc1)C(=O)COC(=O)CNS(=O)(=O)c1ccc2ccccc2c1
i,-0.15,O=C(COC(=O)c1cccnc1Nc1ccccc1F)NCCN1C(=O)CSC1=O
i,1.07,CCN1C(=O)/C(=C2/Sc3ccc(OC)cc3N2C)SC1=Nc1cccc(O)c1
i,1.43,CCS(=O)(=O)Nc1ccc(C(=O)c2ccccc2)cc1
i,1.89,COc1ccc(OCC(=O)Nc2nc3ccc(NC(C)=O)cc3s2)cc1
i,0.77,COc1ccc2sc(N(CCN(C)C)C(=O)/C=C/c3cccs3)nc2c1
i,-1.09,CC1CCN(C(=O)C2CCN(S(=O)(=O)c3cc(Cl)ccc3Cl)CC2)CC1
i,-0.65,O=C(CN1CCCCC1)N1c2ccccc2Oc2ccccc21
i,-0.63,Nc1ccc2nc(SCC(=O)c3ccccc3)sc2c1
i,-0.49,O=C(c1ccc(=O)oc1)N1CCC(C(O)(c2ccccc2)c2ccccc2)CC1
i,-0.29,CN(C)CCOc1cccc(Br)c1
i,-0.37,Cc1ccc(C2(CCNC(C)c3cccs3)CCOC(C(C)C)C2)cc1 (stereo not drawn)
i,-0.9,COc1ccc(Cl)cc1NS(=O)(=O)c1cccc2cccnc12
i,5.64,COc1ccc(-c2cc(=O)oc3cc(OCC(=O)NCCCn4ccnc4)ccc23)cc1
i,1.22,CC(=O)NCC(=O)NC1CC(C)(C)Cc2c1cnn2-c1ccccc1 (stereo not drawn)
i,0.97,Cc1cc[n+](CC(=O)Nc2cccc(C)c2)cc1
i,-1.31,Cc1cc(C)cc(Nc2ncc3c(n2)CC(c2ccco2)CC3=O)c1 (stereo not drawn)
-7.93*,0.17*,COc1ccc(C)cc1NC(=O)C(Sc1nnc(-c2ccncc2)n1-c1ccc(Cl)cc1)c1ccccc1 (stereo not drawn)
i,0.61,O=C(Cc1cccs1)NCCCc1ccccc1
i,2.07,O=C(CCCc1ccccc1)Nc1ccnn1C1CCN(Cc2ccc(CO)o2)CC1
i,0.87,COCCn1c(SCC(=O)c2cccc(OC)c2)nnc1-c1ccco1
i,0.07,COc1ccccc1Nc1nc(-c2cccs2)cs1
i,-0.36,CCC/C=N/NC(=O)c1cc(Br)ccc1O
i,1.1,O=C1c2ccccc2S(=O)(=O)c2cc(C(=O)N3CCN(c4ccc(Cl)cn4)CC3)ccc21
i,-0.8,c1ccc(-c2noc(-c3ccc4ccccc4c3)n2)cc1
i,2.31,COc1cc(C(=O)NCc2nnc(SCC(=O)Nc3cccc(C(F)(F)F)c3)o2)cc(OC)c1OC
i,0.11,O=C(NCc1ccccn1)C(=O)Nc1cc2c3c(c1)CC(=O)N3CCC2
i,-1.95,S=C(c1ccc(-c2cccc(Cl)c2)o1)N1CCCCC1
i,0.18,Cc1cccc(-n2nnc(C(=O)NCc3ccc4c(c3)OCO4)c2N)c1
i,-0.67,COc1cccc(CN2CCN(Cc3ccc4cccc(F)c4n3)CC2CCO)c1 (stereo not drawn)
i,0.74,COc1ccccc1NC(=O)C(O)C(O)C(=O)Nc1ccccc1OC (stereo not drawn)
i,0.31,CCc1nn2c(NCCOC)cc(C)nc2c1-c1ccc(F)cc1
i,3.33,COc1ccccc1OCCNC(=O)CNC(=O)c1ccc(Cl)c(Cl)c1
i,0.13,O=C(NCc1cccs1)c1cc(-c2ccncc2)nc2ccc(Br)cc12
i,-1.17,Cc1ccccc1C(=O)NC(CC(C)C)C(=O)Nc1ccc(F)c([N+](=O)[O-])c1 (stereo not drawn)
i,1.76,COc1ccc(N2CCN(C(=O)CSc3ncn[nH]3)CC2)cc1
i,-0.11,O=C(CSc1nnc(CNc2ccc(F)cc2)o1)OC1CCCCC1

Continuation:
KCNQ2 block,KCNQ2 block baseline,SMILES
i,-1.26,Cc1cc(N2CCN(c3ccccc3)CC2)n2c(n1)nc1ccccc12
i,3.21,Cc1ccc(S(=O)(=O)N(C)C)cc1NC(=S)NCCCn1ccnc1
i,1.06,COc1ccc(C(=O)c2cc([N+](=O)[O-])ccc2N2CCN(C)CC2)cc1
i,-0.76,CCn1cc(C(=O)OCC(=O)OC2CC(C)CCC2C(C)C)c(=O)c2ccc(C)nc21 (stereo not drawn)
i,-0.02,COC(=O)c1ccc(/C=C2/C(=O)Oc3ccccc32)cc1
i,2.06,COc1ccc(C(=O)N(Cc2ccccc2)c2ccc(C)cc2)cc1S(=O)(=O)N1CCOCC1
i,-1.98,O=c1c(-c2ccccc2)nc(-c2ccccc2)cn1O
i,-1.46,Cc1nc2nc(NC(=O)c3ccco3)[nH]n2c(=O)c1C
i,2.26,O=C(CCN1CCN(c2ccc(Cl)cc2)CC1)Nc1ccccc1F
i,3.52,Brc1ccc(-c2nc(-c3ccncc3)no2)cc1
i,5.09,O=C(CSc1nnc2c(n1)[nH]c1ccc(S(=O)(=O)N3CCOCC3)cc12)Nc1ccccc1Cl
i,0.07,COc1ccccc1C(=O)COC(=O)Cn1c(C)csc1=O
-6.28*,0.95*,CN(CC(=O)Nc1ccccc1-c1ccccc1)Cc1ccccc1Cl
i,1.43,Cc1noc(NC(=O)c2ccccc2Cl)c1C#N
i,0.92,O=C(NCc1ccccc1)c1ccc(CN(c2ccccn2)S(=O)(=O)c2ccccc2)cc1
i,-1.39,O=C(Nc1ccccc1C(=O)NCCc1ccccc1)c1cnccn1
i,-0.43,Cc1cccc(OCCOC(=O)Nc2ccccc2)c1

Source: PubChem (Johns Hopkins Ion Channel Center)

Some of the compounds tested. The share of hits here may be higher or lower than overall.
